Screening data from PubChem BioAssay.
FGF22 binding = FGF22 (human) thermal shift binding. Q9HCT0. recombinant FGF22 thermal shift, SYPRO orange fluorescence; percent of sucrose octasulfate shift, DMSO zero. calls only at 9.99 µM. actives 1.5% (n = 340,000);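 active = melting point raised past a set limit in the mean and every replicate; three in four hits are not shown here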
Target sequence (Q9HCT0 whole entry, looked up): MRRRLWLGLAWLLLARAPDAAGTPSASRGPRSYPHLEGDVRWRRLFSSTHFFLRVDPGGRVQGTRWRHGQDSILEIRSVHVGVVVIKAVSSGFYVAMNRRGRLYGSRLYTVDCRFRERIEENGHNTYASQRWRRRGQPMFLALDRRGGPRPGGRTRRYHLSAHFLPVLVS
T cruzi inh = blocks replication of Trypanosoma cruzi; inhibition, % (no concentration beside the values); T. cruzi beta-gal in NIH3T3, luminescence, 90 h; actives 1.4% (n = 300,000);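 active = mean inhibition across valid replicates above about 55%, limit read from the data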;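 note: signal also drops with host cell toxicity which is not excluded here; 0% = plate median of DMSO wells and 100% = zero luminescence signal; higher percent means less beta-gal luminescence so fewer parasites; stock transfer was 50 nL into about 50 µL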
A1 inh = inhibitors of the anti-apoptotic protein A1, read as caspase activation; MEF A1-2A-BIM cells, Caspase-Glo 3/7 luminescence, 3 h; percent of clofoctol response, vehicle zero; caspase activation, % (test concentration not listed); actives 0.066% (n = 330,000); AID 2462;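 active = over half of replicate activation scores above 10%, or exactly half above 10 with the replicate mean above 10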;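 note: wells of about 30 µL received 50 nL stock; many hits fall short of the cut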
AF4-AF9 inh = MLL-AF4/AF9 protein interaction inhibition. inhibition, % at 10 µM. AID 651704. AlphaScreen, biotin-AF4 peptide binding to FLAG-AF9. P42568. actives 0.47% (n = 350,000);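 active = every replicate reaching a set inhibition limit, whatever the replicate mean, cut at about 25% in these data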;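 note: 0% = plate neutral control median and 100% = total signal loss; the record names both 10 and 1 µM as test concentration; the first replicate is given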
Target sequence (P42568 whole entry, looked up): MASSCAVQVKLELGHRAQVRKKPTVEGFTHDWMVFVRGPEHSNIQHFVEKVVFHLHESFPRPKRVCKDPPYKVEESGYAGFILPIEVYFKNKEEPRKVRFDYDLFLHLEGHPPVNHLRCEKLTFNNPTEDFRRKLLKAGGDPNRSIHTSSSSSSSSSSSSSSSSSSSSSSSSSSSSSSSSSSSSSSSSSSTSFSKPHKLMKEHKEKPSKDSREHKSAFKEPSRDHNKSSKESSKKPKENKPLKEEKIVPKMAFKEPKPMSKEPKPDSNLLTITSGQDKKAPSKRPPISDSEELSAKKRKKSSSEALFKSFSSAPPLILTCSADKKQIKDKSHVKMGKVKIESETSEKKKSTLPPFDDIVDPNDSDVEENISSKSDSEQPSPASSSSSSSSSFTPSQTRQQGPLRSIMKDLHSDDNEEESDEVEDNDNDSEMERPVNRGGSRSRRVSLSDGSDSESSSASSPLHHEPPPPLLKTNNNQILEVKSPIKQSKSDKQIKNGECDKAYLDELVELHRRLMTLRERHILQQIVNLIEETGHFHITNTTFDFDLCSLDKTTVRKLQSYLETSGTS
UCH37 inh = blocks the human deubiquitinase UCH37 | AID 588478 | actives 0.33% (n = 330,000) | purified proteasome/UCH37, Ub-AMC cleavage fluorescence | inhibition, % (concentration not given with the values);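 active = mean of two replicates above 20%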;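 note: 0% = compound-free wells with enzyme and 100% = wells lacking proteasome; stock transfer was 100 nL into about 20 µL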
Target sequence (Q9Y5K5 whole entry, looked up): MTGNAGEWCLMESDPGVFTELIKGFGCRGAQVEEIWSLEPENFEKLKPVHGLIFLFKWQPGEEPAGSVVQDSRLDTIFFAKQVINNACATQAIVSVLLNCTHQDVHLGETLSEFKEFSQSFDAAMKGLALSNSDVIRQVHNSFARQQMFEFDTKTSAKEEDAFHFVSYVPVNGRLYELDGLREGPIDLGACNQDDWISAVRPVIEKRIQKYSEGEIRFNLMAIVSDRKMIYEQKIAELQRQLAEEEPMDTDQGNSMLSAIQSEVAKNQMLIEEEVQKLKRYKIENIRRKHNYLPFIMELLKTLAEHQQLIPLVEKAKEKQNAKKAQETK
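Material: Human UCH37 enzyme supplied as purified proteasome complex | Schedule: 30 min preincubation with enzyme, 25 min cleavage at room temperature | Detection: AMC fluorescence 355/460 nm | Measure: % inhibition of Ub-AMC cleavage fluorescence | Controls: Wells without proteasome as full block, compound-free enzyme plus substrate as uninhibited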
Beta apoptosis = beta cell apoptosis inhibition; INS-1E cytokine-induced death, ATP luminescence, 48 h; percent of positive-control rescue, neutral wells zero; protection from apoptosis, % (no concentration beside the values); actives 0.8% (n = 300,000);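 active = all replicates at 75% or more, or half of them and the mean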;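 note: 0% = cytokine-treated negative control wells and 100% = positive control rescue; higher means more ATP so stronger rescue from cytokine killing; wells of about 40 µL received 100 nL stock; the first replicate is given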
E coli growth = blocks Escherichia coli growth. AID 1053175. OD600, 23 h; hits give low values. actives 0.21% (n = 330,000). OD600 absorbance (no concentration beside the values);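 active = OD600 absorbance below the run mean of sample wells minus 3.6 SD, in any replicate, cut at about 0.56 in these data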;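 note: stock transfer was 300 nL into about 60 µL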
rRNA inh HTS = inhibitors of bacterial rRNA selective over humanized ribosomes; AID 720706; GFP signal change (wild-type ribosome), % (test concentration not listed); E. coli WT GFP vs humanized-ribosome RFP mutants, fluorescence, 24 h; hits give low values; DMSO median 0, no signal -100; actives 1.6% (n = 350,000);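 active = significant combined selectivity score with lowered wild-type GFP, culture density cut under 30%, mutant RFP and density less affected; inactive = any of these conditions unmet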; note: one replicate is shown; some compounds called inactive have numbers as strong as hits
rRNA inh HTS OD600 = second read-out of rRNA inh HTS, no call of its own (marks repeat the call); OD600 change, %; measured here: OD600 growth;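 optical density of the mix in the first replicate; 0 = DMSO median and -100 = no signal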
rRNA inh HTS RFP = recorded beside rRNA inh HTS, whose call it bears; RFP signal change, %; measured here: RFP humanized mutant strains;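 first replicate; 0 = DMSO median and -100 = no signal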
Numbers without * were called inactive; i = inactive; nt = no result given. Not all compounds are listed (hit frequency here may not be typical).

Start of the listing, in advance (13 entries):
SMILES	FGF22 binding	T cruzi inh	A1 inh	AF4-AF9 inh	UCH37 inh	Beta apoptosis	E coli growth	rRNA inh HTS	rRNA inh HTS OD600	rRNA inh HTS RFP
COCCSc1ccccc1C(=O)Nc1cc(C)on1	i	-1.6	-0.3	-6.9	0.9	-3.9	0.653	17.6	6.0	2.7
CC(=O)Nc1ccc(N(C(=O)Cc2c[nH]c3ccccc23)C(C(=O)NC2CCCCC2)c2ccco2)cc1 (centres undefined)	nt	-3.9	-1.0	nt	-3.4	-0.9	0.66	nt	nt	nt
Cc1cc(-c2nnc3sc(C4CCCCC4)nn23)n[nH]1	nt	6.1	-0.9	nt	0.8	3.7	0.71	nt	nt	nt
O=S1(=O)CCC(N=Cc2cc(Br)ccc2O)C1 (centres undefined)	nt	-4.5	-1.5	nt	0.7	-2.9	0.648	nt	nt	nt
COc1ccc(C(CNc2ccc(C(F)(F)F)cn2)N(C)C)cc1OC (centres undefined)	i	8.4	0.8	3.9	-7.5	1.6	0.641	5.9	8.1	3.8
Cc1ccc(S(=O)(=O)NNC(=S)NC(=O)c2ccc([N+](=O)[O-])cc2)cc1	nt	7.7	-0.6	nt	5.2	-7.0	0.713	nt	nt	nt
COc1ccc(-c2csc(Nc3ccccc3)[n+]2CC(O)c2ccc([N+](=O)[O-])cc2)cc1 (centres undefined)	i	19.1	-0.9	2.7	4.4	11.1	0.75	3.7	-0.3	0.7
COc1ccc(NS(=O)(=O)c2ccc3c(c2)oc(=O)n3C)cc1Cl	i	6.5	-0.1	1.4	2.0	nt	0.616	-1.3	-31.5	2.8
O=C(CSc1nnc(CN2CCCCCC2=O)n1-c1ccccn1)NCC(F)(F)F	nt	4.0	0.9	nt	2.7	nt	0.676	nt	nt	nt
CCN1CCN(CC(=O)Nc2nc3ccc(C)cc3s2)CC1	i	26.7	-0.4	0.6	-1.0	-1.4	0.663	4.5	0.6	-4.0
CCN(CC)CCNC(=O)c1cc([N+](=O)[O-])c(N(C)C)cc1OC	i	-15.6	-0.7	-9.7	4.1	-1.0	0.714	10.4	-0.9	-5.5
CC(=O)c1cccc(OCc2cc(C(=O)NCCC3=CCCCC3)no2)c1	i	-0.6	-4.7	-0.3	22.2*	0.9	0.71	2.3	-1.7	3.2
O=C(O)c1c[nH]c2c([N+](=O)[O-])cccc2c1=O	nt	nt	nt	-0.9	5.5	nt	0.534	-30.1	-48.4	50.6

This part in full, from the first entry:
SMILES	FGF22 binding	T cruzi inh	A1 inh	AF4-AF9 inh	UCH37 inh	Beta apoptosis	E coli growth	rRNA inh HTS	rRNA inh HTS OD600	rRNA inh HTS RFP
COCCSc1ccccc1C(=O)Nc1cc(C)on1	i	-1.6	-0.3	-6.9	0.9	-3.9	0.653	17.6	6.0	2.7
CC(=O)Nc1ccc(N(C(=O)Cc2c[nH]c3ccccc23)C(C(=O)NC2CCCCC2)c2ccco2)cc1 (centres undefined)	nt	-3.9	-1.0	nt	-3.4	-0.9	0.66	nt	nt	nt
Cc1cc(-c2nnc3sc(C4CCCCC4)nn23)n[nH]1	nt	6.1	-0.9	nt	0.8	3.7	0.71	nt	nt	nt
O=S1(=O)CCC(N=Cc2cc(Br)ccc2O)C1 (centres undefined)	nt	-4.5	-1.5	nt	0.7	-2.9	0.648	nt	nt	nt
COc1ccc(C(CNc2ccc(C(F)(F)F)cn2)N(C)C)cc1OC (centres undefined)	i	8.4	0.8	3.9	-7.5	1.6	0.641	5.9	8.1	3.8
Cc1ccc(S(=O)(=O)NNC(=S)NC(=O)c2ccc([N+](=O)[O-])cc2)cc1	nt	7.7	-0.6	nt	5.2	-7.0	0.713	nt	nt	nt
COc1ccc(-c2csc(Nc3ccccc3)[n+]2CC(O)c2ccc([N+](=O)[O-])cc2)cc1 (centres undefined)	i	19.1	-0.9	2.7	4.4	11.1	0.75	3.7	-0.3	0.7
COc1ccc(NS(=O)(=O)c2ccc3c(c2)oc(=O)n3C)cc1Cl	i	6.5	-0.1	1.4	2.0	nt	0.616	-1.3	-31.5	2.8
O=C(CSc1nnc(CN2CCCCCC2=O)n1-c1ccccn1)NCC(F)(F)F	nt	4.0	0.9	nt	2.7	nt	0.676	nt	nt	nt
CCN1CCN(CC(=O)Nc2nc3ccc(C)cc3s2)CC1	i	26.7	-0.4	0.6	-1.0	-1.4	0.663	4.5	0.6	-4.0
CCN(CC)CCNC(=O)c1cc([N+](=O)[O-])c(N(C)C)cc1OC	i	-15.6	-0.7	-9.7	4.1	-1.0	0.714	10.4	-0.9	-5.5
CC(=O)c1cccc(OCc2cc(C(=O)NCCC3=CCCCC3)no2)c1	i	-0.6	-4.7	-0.3	22.2*	0.9	0.71	2.3	-1.7	3.2
O=C(O)c1c[nH]c2c([N+](=O)[O-])cccc2c1=O	nt	nt	nt	-0.9	5.5	nt	0.534	-30.1	-48.4	50.6
NC1=NC(=O)C(CC(=O)NCc2ccccc2)S1 (centres undefined)	i	-7.5	-0.3	-3.3	-0.7	-4.6	0.703	10.8	4.7	0.9
C/C(=N\NC(=O)c1c[nH]c2ccccc12)c1ccc2c(c1)OCO2	i	0.9	-0.7	3.8	nt	-1.0	nt	6.4	-3.8	-0.4
CN1CCC(N(C)C(=O)c2cccc(S(=O)(=O)N3CCOCC3)c2)CC1	i	nt	0.0	-2.8	2.3	-1.4	0.678	7.8	13.8	-3.5
Cc1ccc(C(=O)NN2C(=O)/C(=C/c3cccn3C)SC2=S)cc1	i	22.0	1.3	2.4	-7.0	-2.9	0.681	-19.4	-21.5	-6.9
Cc1ccc2c(C)c(C(=O)N3CCN(Cc4ccccn4)CC3)oc2c1C	i	11.9	0.1	0.2	1.7	-2.4	0.732	-6.9	-14.8	2.3
CC(OC(=O)CCN=C1NS(=O)(=O)c2ccccc21)C(=O)Nc1ccc(F)cc1 (centres undefined)	i	-9.4	0.2	-0.6	0.6	-8.3	0.655	-4.4	-1.5	1.3
Cc1ccc(NC(=O)CNc2cccc(C)c2C)c(C)c1	nt	3.0	0.6	nt	6.0	-7.5	0.742	nt	nt	nt
Cc1ccc(NC(=O)CCC(=O)NNC(=S)Nc2ccc(F)cc2)c(C)c1	i	0.7	0.7	-1.1	2.8	0.9	0.643	-1.0	5.8	2.3
O=C(O)c1cnn2c1C(=O)N(Cc1cccs1)CC2	i	-17.7	0.2	-4.3	4.9	2.6	0.675	13.4	8.8	0.3
CCCc1nc2c(=O)[nH]c3ccccc3c2o1	nt	-19.5	0.2	nt	1.4	-4.6	0.656	nt	nt	nt
Cc1ccc(NC(=O)CSc2nnc(-c3ccco3)o2)c(C)c1	i	-10.6	0.3	-1.7	1.4	-0.9	0.657	4.0	0.2	16.6
Cc1nnc(NC(=O)CSc2nnc(Cc3cccn3C)n2-c2ccccc2)s1	i	-5.3	1.0	2.9	2.6	1.4	0.732	-1.2	1.5	4.9
Later entries
SMILES	FGF22 binding	T cruzi inh	A1 inh	AF4-AF9 inh	UCH37 inh	Beta apoptosis	E coli growth	rRNA inh HTS	rRNA inh HTS OD600	rRNA inh HTS RFP
Cc1sc2ncnc(N[C@@H](CCC(=O)O)C(=O)O)c2c1C	nt	-15.8	0.0	nt	0.4	-5.1	0.733	nt	nt	nt
CCOC(=O)N1CCN(C2CCCN(C(=O)c3ccccc3C(F)(F)F)C2)CC1 (centres undefined)	i	0.6	nt	1.0	0.5	nt	0.719	8.3	3.9	1.3
CCOc1ccc(CNC(=O)C2CCCN(c3nnc(C)c4c(C)n(-c5ccccc5)nc34)C2)cc1 (centres undefined)	i	16.4	0.7	-0.4	-86.4	8.0	0.685	6.1	-3.2	5.9
COc1ccc(N2CCN(C(=O)Cc3ncc(C(F)(F)F)cc3Cl)CC2)cc1	nt	0.7	nt	nt	0.3	-7.0	0.697	nt	nt	nt
CCOC(=O)c1c(NC(=O)c2cc(-c3cccc(O)c3)on2)sc(C(C)=O)c1C	i	-4.6	-0.4	-7.1	6.4	nt	0.728	7.6	7.6	-1.7
Cc1ccc(C(=O)Nc2cccnc2)cc1S(=O)(=O)N1CCOCC1	nt	0.1	0.8	nt	-0.3	-3.5	0.684	nt	nt	nt
Cc1cc(NC2CCCC2)n2ncc(-c3ccccc3)c2n1	i	12.2	-8.1	-9.8	-131.3	10.6	0.687	-11.6	-25.2	-3.6
COc1ccc(NC(=O)c2cc(-c3ccccn3)nc3ccccc23)c(OC)c1	i	nt	-0.2	4.0	0.3	-0.3	0.676	-20.0	-15.2	-0.6
O=C(Nc1ccc(N2CCCCC2)cc1)C1CCCN1S(=O)(=O)c1ccc(F)cc1 (centres undefined)	i	nt	0.0	11.3	-0.5	1.5	0.71	nt	nt	nt
COc1ccc(C(=O)COc2ccccc2C#N)cc1	i	8.2	0.5	1.2	3.7	-1.5	0.666	9.4	14.3	1.4
Cc1ccc(N2CC(C(=O)OCC(=O)C(C)(C)C)CC2=O)cc1 (centres undefined)	nt	-20.6	-0.7	nt	4.4	nt	0.739	nt	nt	nt
Cc1cccc(NC(=O)C2CCCN2C(=O)NC2CCCCC2)c1 (centres undefined)	i	11.8	1.1	0.3	2.9	-2.5	0.717	27.2	28.6	4.7
COCCN1C(=S)NC(c2cccc(C(F)(F)F)c2)C(C(=O)N2CCOCC2)=C1C (centres undefined)	i	2.7	-1.3	0.9	2.2	-1.1	0.682	6.6	6.2	0.0
COc1ccc(-c2noc(N3CCC(C(=O)Nc4ccc(OC)cc4OC)CC3)n2)cc1	i	18.6	-0.4	6.6	3.7	6.1	0.717	5.9	1.6	-4.5
O=C(CCCCCNC(=O)N1CCn2c1nc1ccccc12)NCCc1ccccc1	i	14.7	0.2	0.3	2.9	-6.8	0.659	-5.7	-9.9	0.9
O=C(COc1cccc(F)c1)NNC(=O)Cc1ccc(Br)cc1	i	nt	0.3	-0.7	0.7	2.3	0.648	-2.4	9.8	-1.7
CCOC(=O)c1c(C)[nH]c(NC(=O)Nc2c(C)n(C)n(-c3ccccc3)c2=O)c1C	i	-13.3	0.9	6.6	2.6	-3.1	0.679	9.8	3.3	-2.1
CCOC(=O)c1nn(-c2ccccc2F)c2nc(Nc3ccccc3)cc(=O)n12	i	-2.7	0.4	4.0	-11.6	1.2	0.626	-15.4	-24.9	6.2
CCOc1ccccc1NC(=O)C1CCCN(C(=O)Nc2ccccc2)C1 (centres undefined)	nt	-5.1	-0.3	nt	1.1	-1.5	0.713	nt	nt	nt
CC(C)(C)OC(=O)C[C@@H]1C/C=C\C[C@H](CC(=O)NCCO)C(=O)N[C@@H](Cc2ccccc2)COC1=O	i	nt	-0.2	2.5	2.6	1.6	nt	0.2	5.4	2.3
COc1ccc2c(Cl)c(C(=O)NCCc3ccc(S(N)(=O)=O)cc3)sc2c1	i	-5.2	0.0	2.4	-1.1	1.0	0.701	-2.4	-1.2	3.2
N#C/C(=C\c1ccncc1)c1nc2ccccc2[nH]1	i	19.9	nt	2.0	-0.1	nt	nt	-21.1	-1.0	19.2
COc1ccc(N2CCN(C(=O)c3ccc(CS(=O)(=O)c4ccc(OC)cc4)o3)CC2)cc1	i	-18.4	0.2	1.2	-0.5	-4.2	0.744	-1.8	-0.7	-0.1
